Compound activity: PubChem BioAssay, National Center for Advancing Translational Sciences (NCATS)
Cruzain noTriton = blocks cruzain activity in detergent-free assay | AID 1476 | Potency, µM, for the others: max response, negative = inhibition, actives largely listed as inhibitors | purified cruzain, Z-FR-AMC fluorescence, no detergent | hit rate 2.3% among 200,000; active = well fitted curve in the direction sought with a large enough effect; inconclusive = small, poorly fitted or top-dose-only effect, or another doubt; inactive = no such curve, though single readings can be large; an effect the other way counts as inactive or inconclusive;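 also: plate controls were enzyme without inhibitor for no effect and buffer without enzyme for full effect; nearly all actives have a fitted effect of over 40% in size; top concentration of the series not given in the record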
Target sequence (P25779 123-467 limits assumed): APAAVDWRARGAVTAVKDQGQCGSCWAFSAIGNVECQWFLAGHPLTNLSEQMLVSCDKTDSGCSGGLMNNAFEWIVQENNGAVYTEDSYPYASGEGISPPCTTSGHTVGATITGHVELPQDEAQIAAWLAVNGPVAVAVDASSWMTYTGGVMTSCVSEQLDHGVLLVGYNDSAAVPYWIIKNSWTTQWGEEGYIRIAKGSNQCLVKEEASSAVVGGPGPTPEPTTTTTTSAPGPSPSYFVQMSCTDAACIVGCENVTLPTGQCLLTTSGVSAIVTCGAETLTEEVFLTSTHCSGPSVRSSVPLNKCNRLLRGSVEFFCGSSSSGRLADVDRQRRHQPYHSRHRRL
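Detergent-free condition (0.00005% Triton X-100) in acetate buffer pH 5.5 with DTT. 1.5 nM enzyme and compound were pre-mixed 15 min, then 2 uM Z-FR-AMC substrate added; reaction progress from fluorescence change between first and third reads (60 s).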
MARV entry inh = inhibitors of Marburg virus binding or cell entry; AID 540276; Potency, µM (series often up to 37.8 µM), inactives show at the highest dose activity change, negative = inhibition, hits mostly inhibitors; Marburg virus pseudotyped entry inhibition, cell reporter; control for the full effect not named in the record; about a third of the inactives were read at about 46 µM; hit rate 1.8% among 300,000; active = well fitted inhibition curve with a large enough effect; inconclusive = small, poorly fitted or top-dose-only effect, or effect the other way; inactive = flat fitted curve, though single readings scatter; tested in HEK293 cells; about a fifth of its hits are not listed in these tables; also: % is scaled to controls: 0 for no effect and ±100 for the full control effect; luciferase read-out
StopGo reporter = lowers the luciferase signal of an FMDV 2A StopGo reporter; human cells with a luciferase reporter of 2A StopGo recoding; control for the full effect not named in the record; Potency, µM (doses to about 57.9 µM), without a hit: top-dose signal change, negative = less light; hit rate 1.2% among 410,000; AID 1159524; active = well fitted falling curve with a large enough effect; inconclusive = small, poorly fitted or top-dose-only effect; inactive = no such curve, though single readings can be large or run the other way; tested in HEK293T cells; also: % is scaled to controls: 0 for no effect and ±100 for the full control effect; nearly all actives have a fitted effect of over 45% in size; luciferase light after 4 h
RE007 growth inh = less growth of the S. pombe RE007 Vpr strain; S. pombe RE007 Vpr strain, BacTiter-Glo ATP luminescence, 24 h; control for the full effect not named in the record; Potency, µM (titrated, usually from 92.2 µM), for inactives: top-dose activity change, negative = less growth; hit rate 0.21% among 360,000; active = well fitted falling curve with a large enough effect; inconclusive = small, poorly fitted or top-dose-only effect; inactive = no such curve, though single readings can be large or run the other way;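 also: % is scaled to controls: 0 for no effect and ±100 for the full control effect; nearly all actives have a fitted effect of over 50% in size; the assay follows cell death caused by Vpr and the record does not say whether a fall means rescue or toxicity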
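Fission yeast strain RE007, carrying one chromosomally integrated HIV-1 vpr copy, was seeded at OD 0.01 in PMG+AL medium with 23 nL pinned compound. After 24 h at 30 °C and 99% humidity, viability was read by BacTiter-Glo luminescence.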
Lassa entry inh = Lassa virus entry inhibition. hit rate 1.2% among 300,000. AID 540256. Lassa virus pseudotype entry inhibition, cell reporter; control for the full effect not named in the record. Potency, µM (titrated, usually from 37.9 µM), for the others: at the highest dose activity change, negative = inhibition, most hits filed as inhibitors; active means well fitted inhibition curve with a large enough effect; inconclusive means small, poorly fitted or top-dose-only effect, or effect the other way; inactive means flat fitted curve, though single readings scatter; tested in HEK293 cells; also: % is scaled to controls: 0 for no effect and ±100 for the full control effect; nearly all actives have a fitted effect of over 50% in size; luciferase read-out
NS1 inh = influenza NS1 inhibition; S. cerevisiae slowed by influenza A NS1, growth recovery by OD600; Potency, µM (highest dose often 46.1 µM), for inactives: at the top dose activity, positive = more growth; hit rate 0.4% among 270,000; also: actives are rising curves; nearly all actives have a fitted effect of over 50% in size
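Recovery from NS1-induced slow growth read by OD600 in budding yeast switched to galactose assay medium (pH 6.0, -URA) at 1:100 dilution. Compound 23 nl per well; the matching strain lacking NS1 serves as control.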
SARS PLP yeast = SARS-CoV PLP inhibition in yeast; Potency, µM (highest dose often 32.9 µM), inactives show at the top dose activity, positive = growth rescue; hit rate 0.19% among 330,000; S. cerevisiae expressing SARS-CoV PLpro, growth rescue; control for the full effect not named in the record; AID 485353; also: 0% is about no effect; nearly all actives have a fitted effect of over 55% in size; growth read by luminescence after 48 h
Cruzain Triton = inhibitors of Trypanosoma cruzi cruzain with detergent; P25779; purified cruzain, Z-FR-AMC fluorescence, 0.01% Triton; Potency, µM, for inactives: max response, negative = inhibition, most hits filed as inhibitors; hit rate 0.43% among 200,000; AID 1478; active = well fitted curve in the direction sought with a large enough effect; inconclusive = small, poorly fitted or top-dose-only effect, or another doubt; inactive = no such curve, though single readings can be large; an effect the other way counts as inactive or inconclusive;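 also: plate controls were neutral wells for no effect and buffer without enzyme for full effect; nearly all actives have a fitted effect of over 40% in size; top concentration of the series not given in the record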
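Sodium acetate buffer (100 mM, pH 5.5) containing 5 mM DTT and 0.01% Triton X-100 hosted 1.5 nM cruzain and test compound for 15 min at room temperature. Cleavage of 2 uM Z-FR-AMC was then tracked by fluorescence.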
* = called active by the depositor; ? = inconclusive; . = not tested or not shown; & = joins results of further samples; [ ] = remark or other dose. Unless noted, calls follow the shape of the dose curve; as a rule, active means well fitted rising curve with a large enough effect; inconclusive means small, poorly fitted or top-dose-only effect; inactive means no such curve, though single readings can be large or run the other way. Potency is read from the fitted curve at half-maximal effect.

nr	molecule	MARV entry inh	RE007 growth inh	Cruzain Triton	NS1 inh	Cruzain noTriton	StopGo reporter	SARS PLP yeast	Lassa entry inh
1	Cc1nnc(SCC(=O)N(C)c2ccccc2)n1Cc1ccccc1	10%[46.1 µM]	8%	.	-5%	.	11%	-1%	16%[46.1 µM]
2	CC(C)CCNC(=O)C(=O)NC1CCCC1	?	1%	-0.2%	-2%	-2%	21%	-37%	0%[46.1 µM]
3	CCN1CCN(C(=O)Cc2c(C)n(C(=O)c3ccc(Cl)cc3)c3ccc(OC)cc23)CC1	-17%[46.1 µM]	5%	.	.	.	-24%	1%	10%[46.1 µM]
4	Cc1c(NC(=O)COc2cccc3c2OC(C)(C)C3)c(=O)n(-c2ccccc2)n1C	5%	1%	.	.	.	-9%	-2%	.
5	O=C(CCc1ccncc1)N1CCCC(Nc2ccc(F)c(F)c2)C1 (stereo not drawn)	.	-8%	.	-3%	.	0%	-7%	.
6	c1ccc(OCc2nc(-c3ccccc3)no2)cc1	15%	-19%	-4.9%	-5%	-9%	61%[activator]	1%	?
7	CC(C)OC(=O)CC(=O)CSc1nc2c(cc1C#N)CCCCC2	-7%[46.1 µM]	29%	-5.1%	-13%	-3%	42%[activator]	-5%	26%
8	COc1cccc(C(=O)NCCS(=O)(=O)N2CCCC2)c1	19%	-16%	.	.	.	12%	-2%	?
9	Cc1ccccc1-n1ccnc1SCC(=O)NCc1ccco1	?	22%	.	.	.	-21%	-1%	-2%
10	O=C(c1n[nH]c2ccccc12)N1CCCCC1	7%	-4%	.	.	.	14%	-4%	7%
11	Cc1cc(Cl)ccc1C(=O)C1CCCN(C(=O)c2cnsn2)C1 (stereo not drawn)	.	11%	.	-5%	.	-16%	0%	.
12	Cc1cccc(C(=O)NC(=O)Nc2c(C)cc(C)nc2C)c1	-5%[46.1 µM]	-19%	.	-6%	.	12%	1%	7%
13	Cc1cc(Cl)c(S(=O)(=O)N2CCCCCC2)cc1OCC(=O)NC1CCCCC1	-17%	-10%[3.69 µM]	-5.0%	-11%	4%	-4%	-1%	-5%
14	O=C(c1c(F)cccc1F)N(C1CCCCC1)C1CCCCC1	.	-4%	.	-38%	.	?	2%	.
15	COc1ccccc1OCCC(=O)NCc1ccc2c(c1)OCO2	25%[46.1 µM]	6%	.	.	.	-2%	-4%	24%
16	CC1CCCCN1CC(=O)c1c[nH]c2ccccc12 (stereo not drawn)	?	9%	.	0%	.	4%	-3%	2%
17	Cc1cc(C(=O)CN2CC(C)OC(C)C2)c(C)n1-c1ccccc1 (stereo not drawn)	.	-6%	-3.3%	8%	-2%	26%	0%	.
18	CCCCOc1cccc(-c2cc(C(=O)NNC(=S)NCC)c3ccccc3n2)c1	-9%	-13%	-4.7%	4%	3%	76%[activator]	14%	30%[14.3 µM]
19	O=C(NCc1cccnc1)c1cccc(S(=O)(=O)N2CCOCC2)c1	-1%	9%	-0.7%	-16%	-6%	2%	4%	4%
20	O=C(O)c1ccc2nc(-c3cc4cc(F)ccc4oc3=O)[nH]c2c1	.	.	2.0%	.	24%	-37%	.	-1%[46.1 µM]
21	CC(C)(C)n1c(=O)[nH]c2c(c1=O)CCC2	3%	0%	-1.8%	-5%	-1%	-25%	-2%	1%
22	CCCCOc1ccc(C2C3CN(C(=O)OCC)CC=C3C(C#N)=C(N)C2(C#N)C#N)cc1OC (stereo not drawn)	0%&-2%	-7%	-5.2%	-34%	?	?	-17%	?
23	CC(C)(C#CC(=O)O)OOC(c1ccccc1)(c1ccccc1)c1ccccc1	.	3%	.	8%	.	?	-3%	.
24	COc1cc2c(cc1OC)CN(CC(=O)NC(=O)NCc1ccco1)CC2	9%[46.1 µM]	1%	-11%	-4%	4%	2%	1%	-6%
25	CCCNC(=O)c1cnc2sc(N3CCCCC3)nn2c1=O	.	.	-5.7%	.	-16%	-11%	.	31%[46.1 µM]
26	COc1ccc(-c2cc(C(F)(F)F)nc(N3CCN(C)CC3)n2)cc1	?	-4%	0.1%	7%	-3%	-18%	5%	-24%
27	CCc1ccc(C(=O)C(C)OC(=O)Cc2n[nH]c(=O)c3ccccc23)cc1 (stereo not drawn)	?	11%	.	1%	.	-23%	-4%	?
28	COc1c(C)cc(S(=O)(=O)N2CCOCC2)c(C)c1C	11%	4%	.	-5%	.	-6%	0%	7%
29	COc1cc(NC(=O)CN(C)S(=O)(=O)c2cccs2)cc(OC)c1	.	-8%	.	-1%	.	3%	0%	.
30	COCCNC(=O)Cn1cnc2c(cnn2-c2ccc(C)cc2)c1=O	15%[46.1 µM]	4%	.	-3%	.	-8%	2%	0%[46.1 µM]
31	CCN=C(NCC)SC1CC(=O)N(c2ccc(OCC)cc2)C1=O (stereo not drawn)	.	3%	.	0%	.	4%	1%	.
32	COc1ccc(C)cc1NC(=O)COC(=O)Cc1ccc(-c2ccccc2)cc1	27%	-10%	-8.0%	-18%	14%	0%	-31%	5%
33	CCOc1ccc(N2CC(C(=O)N3CCc4ccccc43)CC2=O)cc1 (stereo not drawn)	?	12%	.	-9%	.	-4%	-4%	25%
34	CCN(CC)CCNC(=O)Cn1c(-c2ccccn2)nc2ccccc21	-10%	12%	3.8%	2%	3%	12%	2%	2%
35	CCCC(=O)N=C1SC2CS(=O)(=O)CC2N1c1ccc(C(C)=O)cc1 (stereo not drawn)	?	1%	0.8%	?	-4%	-14%	8%	0%
36	CCOc1ccc(CCNC(=O)COC(=O)c2c(C)nn(-c3ccccc3)c2C)cc1OCC	0%[46.1 µM]	-1%	.	-1%	.	6%	0%	-17%[46.1 µM]
37	CCN1CCN(c2cc(C)c3cc(NC(=O)CCC(=O)N4CCN(c5ccccc5OC)CC4)ccc3n2)CC1	?	-21%	.	-18%	.	2%	1%	13%[46.1 µM]
38	COc1c(C(CC(C)C)OC(C)=O)ccc2c1C(=O)OCc1cc(C)cc(O)c1O2 (stereo not drawn)	.	7%	.	-96%	.	?	-11%	.
39	NS(=O)(=O)c1ccc(-c2ccc(/C=N/Nc3ccc(C(=O)O)cc3)o2)cc1	.	4%	.	9%	.	?	2%	.
40	O=C(CN1C(=O)NC2(CCCC2)C1=O)OCc1ccc(Cl)c(Cl)c1	18%	-8%	.	.	.	-1%	-11%	?
41	COc1nc(-c2ccccc2)cc(-c2ccccc2)n1	21%	-2%	-6.1%	-16%	2%	-12%	-27%	-9%
42	CCOc1cc(NC(=S)Nc2ccccc2OC)c(OCC)cc1NC(=O)c1ccccc1C	?	-8%	1.7%	?	?	2%	-3%	?
43	CCOc1ccc(CCNC(=O)COC(=O)c2sccc2C)cc1OCC	-8%	-11%	.	.	.	1%	-6%	8%
44	Cc1ccccc1Nc1sc(C(=O)Nc2cccc(Cl)c2)c(N)c1C(N)=O	?	-6%	-7.5%	-6%	?	-10%	-1%	-26%
45	COc1ccc(NC(=O)CCN2CCN(S(=O)(=O)c3ccc(Cl)cc3)CC2)cc1	-33%	1%	-0.6%	-6%	4%	.	0%	9%
46	COc1ccc(Cl)cc1NS(=O)(=O)c1cc(Br)cc2c1N(C(=O)C1CC1)CC2	22%[46.1 µM]	.	-0.8%	.	?	-14%	.	2%[46.1 µM]
47	O=C(c1ccco1)N(Cc1cccnc1)c1nc2c(F)cc(F)cc2s1	.	.	-1.5%	.	-9%	-23%	.	9%[46.1 µM]
48	O=Cc1c(NCc2ccc(Cl)cc2)c2ccccc2[nH]c1=O	.	-7%	.	0%	.	8%	5%	.
49	COc1ccc(C2=NOC(C(=O)Nc3c(C)n(C)n(-c4ccccc4)c3=O)C2)cc1 (stereo not drawn)	.	21%	-0.4%	-9%	-4%	-9%	-6%	.
50	COc1ccc(CCNCc2c(C(=O)O)c(C)n(Cc3c(F)cccc3Cl)c2C)cc1OC	1%[46.1 µM]	.	-0.4%	.	-3%	-6%	.	8%[46.1 µM]
51	Cc1noc(C)c1COc1cccc(C(=O)OC(C)C(=O)Nc2c(C)n(C)n(-c3ccccc3)c2=O)c1 (stereo not drawn)	-15%[46.1 µM]	-14%	.	.	.	-26%	3%	0%[46.1 µM]
52	O=C(N/N=C/c1cccnc1)C1CCCCC1	-2%	-16%	.	.	.	4%	7%	7%
53	C=CCn1cc(C(=O)NCc2cccnc2)c(=O)c2cc(S(=O)(=O)N(CC)CC)ccc21	.	-3%	-1.4%	-9%	4%	-11%	-4%	.
54	Cc1ccc(NC(=O)c2c(C)nn(-c3ccccc3)c2-n2cccc2)c(Cl)c1	21%[46.1 µM]	.	-1.3%	.	-4%	-17%	.	-20%[46.1 µM]
55	CN1/C(=C\C(=O)Nc2ccc(Br)cc2)C(C)(C)c2ccccc21	0%	3%	-6.6%	-20%	-4%	-13%	-64%	?
56	CCCCc1ccc(Nc2cc(C)nc(-n3nc(C)cc3C)n2)cc1	.	.	-9.6%	.	?	-24%	.	?

The list goes on:
nr	molecule	MARV entry inh	RE007 growth inh	Cruzain Triton	NS1 inh	Cruzain noTriton	StopGo reporter	SARS PLP yeast	Lassa entry inh
57	Cc1ccccc1NC(=O)Cn1c([N+](=O)[O-])cnc1C	5%	0%	-3.6%	-18%	-2%	-13%	9%	0%
58	O=C(NCCc1c[nH]c2ccccc12)C(=O)NCC1CCCO1 (stereo not drawn)	?	9%	.	-4%	.	14%	0%	?
59	Nc1c(-c2cccc(Cl)c2)cnc2c(-c3ccccc3)cnn12	?	-12%	.	6%	.	16%	1%	?
60	CC(C)c1ccc(OCC(O)CN2CCN(c3ccccc3)CC2)cc1 (stereo not drawn)	?	0%&3%	2.1%	-36%	0%	-11%&-23%	-2%	-25%[46.1 µM]
61	O=C(NC1CCCCCC1)c1cccc(COCC(F)(F)F)c1	?	-2%	-1.5%	0%	-9%	31%[activator]	-2%	9%
62	CC1(C)SC(=S)N(/N=C/c2ccccc2)C1N(O)C(=O)Nc1ccc([N+](=O)[O-])cc1 (stereo not drawn)	18µM*	15%	-7.5%	25%	0%	4%	-7%	0%
63	O=c1c2ccccc2nnn1CSc1nnc(C2COc3ccccc3O2)n1-c1ccccc1 (stereo not drawn)	8%&8%	-11%	-1.3%	6%	9%	-4%	0%	?
